KCNQ2 pot – potentiators of rat KCNQ2 potassium channel | O88943 | CHO-K1 KCNQ2, FluxOR thallium flux fluorescence; stronger effect = higher value | B-score at 10 µM | actives 0.54% (n = 310,000);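 active means fluorescence ratio B-score at least 3 SD of library B-scores, with initial fluorescence B-score within 3 SD, cut at about 5.3 in these data; same plate scores as AID 2156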;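 further: B-score of peak minus minimum over baseline fluorescence ratio after K+ and Tl+ stimulus; positive B-score means potentiation of KCNQ2 with more thallium influx and brighter signal; only the inactives scoring about 0 or higher are listed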
Target sequence (O88943 whole entry, looked up): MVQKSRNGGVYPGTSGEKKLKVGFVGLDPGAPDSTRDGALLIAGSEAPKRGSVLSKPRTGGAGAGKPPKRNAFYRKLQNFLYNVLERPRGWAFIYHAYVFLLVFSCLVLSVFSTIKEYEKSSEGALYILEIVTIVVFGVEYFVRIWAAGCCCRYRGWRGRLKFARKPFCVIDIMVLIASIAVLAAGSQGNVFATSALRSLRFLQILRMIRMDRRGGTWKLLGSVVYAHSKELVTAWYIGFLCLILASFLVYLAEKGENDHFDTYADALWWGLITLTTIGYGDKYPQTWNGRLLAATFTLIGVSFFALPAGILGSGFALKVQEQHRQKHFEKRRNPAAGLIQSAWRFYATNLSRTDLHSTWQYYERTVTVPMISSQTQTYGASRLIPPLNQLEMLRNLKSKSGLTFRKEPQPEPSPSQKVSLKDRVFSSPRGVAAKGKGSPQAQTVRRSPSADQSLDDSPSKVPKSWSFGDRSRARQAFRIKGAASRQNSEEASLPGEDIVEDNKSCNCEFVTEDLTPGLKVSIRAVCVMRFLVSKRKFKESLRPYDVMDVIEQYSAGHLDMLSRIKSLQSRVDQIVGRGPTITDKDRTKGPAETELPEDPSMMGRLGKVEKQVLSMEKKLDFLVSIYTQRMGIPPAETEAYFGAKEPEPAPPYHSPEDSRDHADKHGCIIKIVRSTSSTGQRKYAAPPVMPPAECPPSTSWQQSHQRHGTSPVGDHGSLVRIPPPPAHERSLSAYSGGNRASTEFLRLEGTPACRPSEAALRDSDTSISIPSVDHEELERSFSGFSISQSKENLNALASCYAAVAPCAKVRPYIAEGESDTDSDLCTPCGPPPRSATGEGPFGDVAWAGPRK
KCNQ2 pot baseline – also measured in KCNQ2 pot; calls as there; B-score; compound at 10 µM; measured here: initial fluorescence intensity artifact check;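 brightness before thallium and not channel activity; 0 = typical well and far values either way flag optical interference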
Starred values were filed as active, the others as inactive. Only part of the results is shown; rates above refer to the full screens.

Value order – KCNQ2 pot, KCNQ2 pot baseline
(1) O=C(NC1CCCC1)C(c1ccc(N2CCOCC2)cc1)N(Cc1ccccc1)C(=O)c1ccco1 (centres undefined)
 : 0.56, -0.46
(2) CCOC(=O)Cc1csc(-n2sc3ccccc3c2=O)n1
 : 0.71, -1.2
(3) O=C(CC1C(=O)NCCN1Cc1ccccc1C(F)(F)F)NCCn1cccn1 (centres undefined)
 : 0.43, -2.8
(4) CCN(CC(=O)Nc1ccc(OC)c(OC)c1)S(=O)(=O)c1ccc(C)cc1
 : 1.1, 0.05
(5) Cc1[nH]c(C)c(S(=O)(=O)NCc2ccc(N(C)C)cc2)c1C(=O)N1CCCC1
 : 1.6, -0.99
(6) C/C(=N\NC(=O)c1nnn(-c2nonc2N)c1-c1ccc2c(c1)OCO2)c1ccc(C)cc1
 : 0.86, 1.3
(7) Cc1ccc(Cn2nc(C)c(NC(=O)C3CC3)c2C)cc1
 : 0.56, -0.94
(8) CCOc1ccc2[nH]c(=O)c(CN(CCN3CCCC3)C(=S)Nc3ccccc3OC)cc2c1
 : 1.1, 0.47
(9) COc1ccc(N(CC(=O)NN=C2CCCCCCC2)S(=O)(=O)c2ccccc2)cc1Cl
 : 1.3, 1.6
(10) COc1cccc(C(=O)NCCCNC(=O)c2ccco2)c1
 : 0.04, 0.04
(11) O=C(Cc1cccc2ccccc12)N/N=C/c1ccc(F)cc1
 : 1.4, -2.5
(12) CCOc1ccccc1NC(=O)c1cc(S(=O)(=O)N2CCC3(CC2)OCCO3)ccc1F
 : 0.05, 0.5
(13) O=c1[nH]c(SCc2ccccc2Cl)nc2[nH]ncc12
 : 0.65, 0.3
(14) CC1(C)C(C(=O)O)N2C(=O)C(NC(=O)Cc3ccccc3)C2S1=O (centres undefined)
 : 0.04, 0.48
(15) Cc1ccc(C)c(C(=O)Nc2nc3ccccc3[nH]2)c1
 : 0.33, -0.41
(16) Cc1oc2c(C)c3oc(=O)c(CCC(=O)O)c(C)c3cc2c1-c1ccccc1
 : 0.71, 0.76
(17) O=C(Oc1cccc(C(=S)N2CCOCC2)c1)c1ccccc1
 : 1.3, 1.6
(18) O=C(NCC1CCCO1)c1cc(Br)c(Br)s1 (centres undefined)
 : 0.95, 0.04
(19) Cn1c(C(=O)N2CCN(C(=O)c3ccco3)CC2)cc2c(=O)n(C)c3ccccc3c21
 : 0.2, -0.9
(20) Cc1cc(C)c([C@@H]2C[C@H]3CN(C4CCCC4)C(=O)[C@]34CCCN24)c(-n2cccn2)c1
 : 0.95, 0.47
(21) CC(C)N(Cc1ccccc1)C(=S)Nc1ccc(F)cc1
 : 0.04, 0.19
(22) CCCN1CCN(C(=O)c2ccc(Sc3ccc(C)cc3)c(NC(C)=O)c2)CC1
 : 0.27, -1.2
(23) O=C(Nc1nc(-c2cc3ccccc3o2)cs1)c1ccc(S(=O)(=O)N2CCCC2)cc1
 : 1, 1.7
(24) Cc1ccc(Oc2ccc(OCC(=O)NC(CC(C)C)C(=O)O)cc2)cc1 (centres undefined)
 : 2, 0.34
(25) Cn1c(=O)c2ccccc2n(Cc2cccc(F)c2)c1=O
 : 1, -0.21
(26) O=C(NC(=S)Nc1ccc(N2CCOCC2)cc1)c1cccs1
 : 0.69, -2.3
(27) CN(Cc1cccc(Cl)c1)C(=O)C1CCC(=O)N(C2CC2)C1 (centres undefined)
 : 0.01, -1.6
(28) O=C(CN1C(=O)NC2(CCCCCCC2)C1=O)NC(=O)NCc1ccco1
 : 0.34, 1.9
(29) Cc1nc2cc(NS(=O)(=O)c3ccccc3F)ccc2s1
 : 2.3, -1.4
(30) CCn1nc(NC(=O)c2ccncc2)c2cc3cc(C)ccc3nc21
 : 0.49, -0.18
(31) FC(F)(F)c1nnc2sc(-c3cccs3)nn12
 : 0.82, -1.2
(32) O=C(CCCCn1c(=O)c2ccccc2n(CC(=O)Nc2ccccc2)c1=O)NCc1ccco1
 : 0.03, 2
(33) COc1ccc(CCNC(=O)CCc2ccc(S(=O)(=O)NCC(C)C)cc2)cc1
 : 0.22, -1
(34) COCCCn1c(C(C)C)nc2oc3cc(OC)ccc3c(=O)c2c1=O
 : 0.16, -1.1
(35) CCCc1cc(=O)oc2cc(C)cc(OCC(=O)N[C@@H](CSCc3ccccc3)C(=O)O)c12
 : 1.4, -0.31
(36) COCCCn1c(=O)c2sccc2n2c(CCCC(=O)NCc3ccccc3)nnc12
 : 0.15, -1.1
(37) CCN(CC)Cc1c(O)ccc2occ(C(=O)c3ccc(OC)cc3)c12
 : 0.1, -1.1
(38) CCn1cc(CN2CCC(C(=O)Nc3cccc(-c4cccc(OC)c4)c3)CC2)c(C)n1
 : 0.46, 0.6
(39) c1cc2c(cc1OCCNC1CCCC1)CCC2
 : 2.2, -0.06
(40) O=c1[nH]c2cc3c(cc2cc1C(c1nnnn1CC1CCCO1)N1CCCC1)OCO3 (centres undefined)
 : 0.38, 0.67
(41) CCSc1nc2ccc(N3C(=O)C4C5C=CC(C5)C4C3=O)cc2s1 (centres undefined)
 : 0.95, 1.3
(42) NC(=O)Nc1ccc(Oc2c(F)c(F)c(F)c(F)c2F)cc1
 : 1.4, 1.8
(43) O=S(=O)(NC1CCCCC1N1CCN(c2ccc(F)cc2)CC1)c1ccccc1 (centres undefined)
 : 0.25, 2.2
(44) CCCc1cc(=O)[nH]c(SCC(=O)Nc2sc3c(c2C#N)CCC(C)C3)n1 (centres undefined)
 : 0.36, -0.5
(45) Cc1ccccc1CSc1nnc(-c2ccncc2)o1
 : 1.6, 4.5
(46) N#Cc1c(C(F)(F)F)cc(C2CC2)nc1N1CCCC1
 : 0.26, 0.9
(47) COc1ccccc1OCc1csc(N)n1
 : 0.75, -2.4
(48) CCC(=O)N1CCN(c2ccc(NC(=S)NC(=O)c3ccc(OC)c([N+](=O)[O-])c3)cc2)CC1
 : 0.31, 0.5
(49) COc1ccc(O)c(/C=N/NC(=O)c2cccc(N3CCCC3=O)c2)c1
 : 1.5, 0.13
(50) CCCCNC(=O)c1onc(CSc2cc(C)cc(C)c2)c1C(=O)O
 : 1.9, -2.9
(51) Cc1sc(-n2c(C)cc(/C=N/n3cnnc3)c2C)c(C#N)c1C
 : 1.2, 0.39
(52) COc1cc(C(=O)C(=O)c2ccc(O)c(OC)c2)ccc1O
 : 0.05, 3.4
(53) Cc1cc(C)c(C(=O)OCc2csc(CC(=O)Nc3ccccc3C)n2)c(C)c1
 : 2, 2.7
(54) Cc1ccc(C)c(Cn2c3ccccc3c3cnn(CC(=O)NCc4ccccn4)c(=O)c32)c1
 : 1.2, 2.6
(55) CCc1cc(=O)oc2cc(C)cc(OC(C)C(=O)NCc3ccncc3)c12 (centres undefined)
 : 0.42, -0.82
(56) Cc1ccc(/C=N/NC(=O)c2cccc(NC(=O)c3ccccc3Cl)c2)o1
 : 2, 0.41
(57) O=C(NNC(=O)c1ccncc1)NC1CCCCC1
 : 0.05, 0.67
(58) CCOC(=O)COc1ccc(C(=O)c2ccccc2)c(O)c1
 : 0.69, 2.3
(59) Cc1ccc(CN2CCNC(=O)C2CC(=O)N(C)CCc2ccccc2)cc1 (centres undefined)
 : 0.24, 3
(60) O=S(=O)(NCc1ccc(F)cc1)c1ccc(-n2cccn2)cc1
 : 0.14, 1.4

Later entries.
Value order – KCNQ2 pot, KCNQ2 pot baseline
(61) Cc1ccc(NC(=O)N2CCN(C/C=C/c3ccccc3)CC2)cc1
 : 0.54, -0.32
(62) COC(=O)CCc1ccc(OCC(O)CNC(C)C)cc1 (centres undefined)
 : 0.19, -2.4
(63) CC1(C(=O)NC2CCCCCCC2)CCC(=O)N1Cc1ccco1 (centres undefined)
 : 0.19, 0.06
(64) CCOC(=O)C1CCN(CCCSc2ccccc2)CC1
 : 0.08, 0.28
(65) Cc1cc(C)cc(N(CC(=O)NC(C)(C)C)C(=O)CCC(=O)Nc2nccs2)c1
 : 0.68, 0.75
(66) CCc1nnc(NC(=O)C(c2ccccc2)c2ccccc2)s1
 : 0.85, -0.78
(67) O=C(C1CCN(S(=O)(=O)c2cccnc2)CC1)N1CCCCC1
 : 0.08, 0.22
(68) O=C(Cc1ccccc1)NCC1COc2ccccc2O1 (centres undefined)
 : 0.5, -0.14
(69) CCC(COC)NC(=O)c1ccc(OC)c(OC2CCN(C(C)=O)CC2)c1 (centres undefined)
 : 1, -0.83
(70) CCC(=O)N1CCc2cc(S(=O)(=O)CCC(=O)NCc3ccc(OC)cc3)ccc21
 : 0.92, 0.01
(71) CC1(c2ccc(Cl)cc2)NC(=O)N(CC(=O)NCc2cccs2)C1=O (centres undefined)
 : 0.19, 1.8
(72) CCn1cc(C(=O)NCc2ccco2)c(=O)c2cc(S(=O)(=O)N3CC(C)CC(C)C3)ccc21 (centres undefined)
 : 0.36, -0.23
(73) CCOC(=O)c1cccc(NC(=O)/C(=C\c2ccccc2)NC(=O)c2ccccc2Cl)c1
 : 0.34, -0.65
(74) CCN(C(=O)COC(=O)/C=C/c1ccccc1[N+](=O)[O-])C1CCS(=O)(=O)C1 (centres undefined)
 : 1.1, 0.06
(75) CCCC1CCc2c(c3ccccc3[nH]c2=O)O1 (centres undefined)
 : 1.3, -0.52
(76) CC(/C=C/C=C/c1ccccc1)=N/NC(=O)c1ccc2c(c1)OCCO2
 : 0.66, -0.32
(77) O=C(CSc1ccccc1C(=O)O)c1ccccc1
 : 1.7, 0.02
(78) CN(C(=O)COC(=O)C1CCN(S(=O)(=O)c2c(Cl)cccc2Cl)CC1)C1CCS(=O)(=O)C1 (centres undefined)
 : 1.1, 1.1
(79) O=C(Nc1ccccc1)Nc1ccccc1C(=O)NCC1CC1
 : 1, 0.64
(80) C#CCN(C(=O)Nc1ccccc1)c1ccccc1
 : 0.44, -2.4
(81) Nc1ncc(Br)cc1Br
 : 1.4, 1.6
(82) O=[N+]([O-])c1ccc(Nc2ccc3ccccc3c2)nc1
 : 3.5, -1.6
(83) O=C(O)CCC(=O)Nc1ccc(S(=O)(=O)Nc2nccs2)cc1
 : 0.81, 0.37
(84) Cc1csc(=N)n1CC(=O)N1CCc2ccccc21
 : 0.23, 0.66
(85) Cc1ccc(NC(=O)C(C)N2C(=O)c3ccccc3C2=O)cc1 (centres undefined)
 : 0.54, -1.7
(86) CCc1nn(-c2ccccc2)c(N)c1C#N
 : 0.12, 0.42
(87) CNc1nc(=S)[nH]c2ccccc12
 : 0.44, 0.03
(88) Cc1ccc(C(=O)N/C(=C\c2cccnc2)C(=O)N2CCCC2)cc1
 : 1.1, -1.1
(89) COc1cccc(Nc2ncnc3sc(C)cc23)c1
 : 0.84, -1.1
(90) CC(NC(=O)C(c1ccccc1)c1ccccc1)C(=O)O (centres undefined)
 : 0.03, -0.36

Next section; the last 7 above are carried over.
Value order – KCNQ2 pot, KCNQ2 pot baseline
(84) Cc1csc(=N)n1CC(=O)N1CCc2ccccc21
 : 0.23, 0.66
(85) Cc1ccc(NC(=O)C(C)N2C(=O)c3ccccc3C2=O)cc1 (centres undefined)
 : 0.54, -1.7
(86) CCc1nn(-c2ccccc2)c(N)c1C#N
 : 0.12, 0.42
(87) CNc1nc(=S)[nH]c2ccccc12
 : 0.44, 0.03
(88) Cc1ccc(C(=O)N/C(=C\c2cccnc2)C(=O)N2CCCC2)cc1
 : 1.1, -1.1
(89) COc1cccc(Nc2ncnc3sc(C)cc23)c1
 : 0.84, -1.1
(90) CC(NC(=O)C(c1ccccc1)c1ccccc1)C(=O)O (centres undefined)
 : 0.03, -0.36
(91) Cc1c(C(C)NC(=O)Nc2ccc(F)cc2F)cnn1C (centres undefined)
 : 0.56, 0.63
(92) CCCN1CCN(CCCNC(=O)c2ccc(NC(=O)C3=C(C)OCCS3)cc2)CC1
 : 1.9, 0.89
(93) CCn1c2ccccc2c2nnc(SCC(N)=O)nc21
 : 1.6, -0.99
(94) CC(=O)c1ccc(NCCC(=O)c2ccccc2)cc1
 : 0.06, -0.14
(95) CC(=O)Nc1c(C)cc(OCC(=O)O)cc1C
 : 0.06, 0.64
(96) COc1cccc(C(c2nnnn2C(C)(C)C)N2CCN(C3CCCCC3)CC2)c1OC (centres undefined)
 : 0.63, -0.06
(97) COc1cc(C(=O)N2CCN(C(=O)c3cc(-c4ccccc4)n[nH]3)CC2)cc(OC)c1OC
 : 0.41, -1.6
(98) CCOc1ccccc1OCC(=O)Nc1cc(S(=O)(=O)N2CCCCC2)ccc1N1CCN(CC)CC1
 : 0.96, -0.31
(99) COC(=O)C1(C)CCc2cc(OC)ccc2C1=O (centres undefined)
 : 0.07, 2.3
(100) O=C(NC(=O)c1ccccc1)Nc1ccc(-c2cnco2)cc1
 : 0.19, 0.49
(101) CCc1ccc(-c2cc3c(=O)n(CC(=O)NCCCN4CCC(Cc5ccccc5)CC4)nc(C)n3n2)cc1
 : 0.67, -0.05
(102) COCCNC(=O)CCCn1c(=O)c2cc(OC)c(OC)cc2n(CC(=O)NCCC2=CCCCC2)c1=O
 : 0.4, -1.9
(103) CCC(C)(C)NC(=O)CN(C(=O)CNS(=O)(=O)c1ccc(C)cc1)c1ccc2c(c1)OCCO2
 : 0.68, 0.62
(104) COC(=O)CCCNC(=O)c1ccc2[nH]c(C)c(C)c2c1
 : 2.3, -1.3
(105) Oc1ccc(N=Cc2ccc(OCc3ccccc3)cc2)cc1
 : 1.1, 0.04

Reformatted: two of the compounds above.
102: COCCNC(=O)CCCn1c(=O)c2cc(OC)c(OC)cc2n(CC(=O)NCCC2=CCCCC2)c1=O
51: Cc1sc(-n2c(C)cc(/C=N/n3cnnc3)c2C)c(C#N)c1C

| Compound | 102 | 51 |
| --- | --- | --- |
| KCNQ2 pot | 0.4 | 1.2 |
| KCNQ2 pot baseline | -1.9 | 0.39 |

The results go on.
Value order – KCNQ2 pot, KCNQ2 pot baseline
(106) Cc1cc(/C=C(/C#N)C(=O)O)c(C)n1-c1cccc2ccccc12
 : 2.1, -0.6
(107) Cc1c(Cl)cccc1NC(=O)Nc1ccc(C(=O)N2CCCC2)cc1
 : 2.9, 2
(108) CCCCn1nnc(NC(=O)c2ccc([N+](=O)[O-])cc2Cl)n1
 : 0.22, 0
(109) O=C(CSc1ccc([N+](=O)[O-])cn1)Nc1ccc2c(c1)OCCO2
 : 1.3, 1.7
